# Beta2AR agonist: beta2AR agonists driving receptor internalization, primary screen, cell-based, FAP fluorogen, flow cytometry. Beta-2 adrenergic receptor (Homo sapiens), P07550. Am2.2-beta2AR cells; reference of the scale not given here. response, % (test concentration not listed). hit rate 0.43% among 340,000;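 active means response above a set limit, near 3 SD of response in nonfluorescent compounds, cut at about 42% in these data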;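 further: stock transfer was 100 nL into about 11 µL; a reference agonist was the positive control; negative values mostly stem from fluorescent compounds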
# Target sequence (P07550 whole entry, looked up): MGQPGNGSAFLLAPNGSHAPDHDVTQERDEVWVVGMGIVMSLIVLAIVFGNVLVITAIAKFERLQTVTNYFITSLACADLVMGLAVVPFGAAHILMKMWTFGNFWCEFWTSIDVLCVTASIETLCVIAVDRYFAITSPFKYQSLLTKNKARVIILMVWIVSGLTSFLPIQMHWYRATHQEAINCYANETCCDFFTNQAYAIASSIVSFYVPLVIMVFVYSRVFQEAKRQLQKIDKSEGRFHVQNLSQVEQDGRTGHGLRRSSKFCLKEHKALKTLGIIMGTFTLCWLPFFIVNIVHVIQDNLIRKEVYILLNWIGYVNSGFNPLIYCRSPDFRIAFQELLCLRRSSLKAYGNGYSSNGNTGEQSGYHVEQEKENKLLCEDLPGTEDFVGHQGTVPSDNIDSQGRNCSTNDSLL
# Bfl-1 A1 inh: caspase 3/7 activation in MEF A1-2A-BIM cells, primary screen, A1 inhibitor project, cell-based, luminescence, HTS; Caspase-Glo 3/7 luminescence, 3 h; percent of clofoctol response, vehicle zero; caspase activation, % (test concentration not listed); hit rate 0.066% among 330,000; AID 2462, 2010;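 active means over half of replicate activation scores above 10%, or exactly half above 10 with the replicate mean above 10; inconclusive means replicate mean below 10 yet half the replicates above 10; inactive means over half of replicates below 10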;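 further: wells of about 30 µL received 50 nL stock; many hits fall short of the cut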
# T cruzi repl: inhibitors of intracellular T. cruzi growth, primary screen, luminescence, NIH3T3 host cells. inhibition, % (concentration not given with the values). hit rate 1.4% among 300,000. AID 1885, 2009. T. cruzi beta-gal in NIH3T3, 90 h;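 active means mean inhibition across valid replicates above about 55%, limit read from the data; inconclusive means mean below that limit but half or more replicates reach it; inactive means mean below it, under half of replicates reach it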;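 further: signal also drops with host cell toxicity which is not excluded here; 0% = plate median of DMSO wells and 100% = zero luminescence signal; higher percent means less beta-gal luminescence so fewer parasites; stock transfer was 50 nL into about 50 µL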
# RanGTP-Impb inh: inhibitors of RanGTP-importin-beta interaction, primary screen, biochemical, FRET, CFP-Ran, YFP-importin-beta, homogeneous; Ran GTPase (GTP-bound) - importin-beta complex; cell-free CFP-Ran/YFP-importin-beta FRET ratio; inhibition, % (concentration not given with the values); hit rate 1.1% among 300,000;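 active means most replicates above 15%; inconclusive means exactly half above 15%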;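 further: 0% = DMSO wells and 100% = Ran loaded with GDP instead of GTP; wells of about 40 µL received 100 nL stock; the first replicate is given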
# LANA-H2B inh: blockers of LANA interaction with H2A/H2B – biochemical, FP readout, HTS, primary screen; Protein LANA1 (Human herpesvirus 8 type P (isolate GK18)), Q9QR71; cell-free LANA-H2A/H2B peptide, fluorescence polarization; inhibition, % (concentration not given with the values); hit rate 0.6% among 320,000; AID 2629, 2010; in the data active means inhibition mostly above about 10%, no sharp cut-off; inactive means mostly below about 6.7%;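 further: stock transfer was 7.5 nL into about 10 µL; 0% = median of vehicle wells and 100% = median of positive control wells; one replicate is shown; the record names a cut of 25% in any replicate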
# Calb FLC: C. albicans growth inhibition with fluconazole, primary screen, CaCi-2 strain, Alamar Blue fluorescence; C. albicans CaCi-2 (fluconazole-resistant clinical isolate) + fluconazole, 48 h; growth inhibition, % (concentration not given with the values); hit rate 0.57% among 300,000;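 active means most replicates above 75%; inconclusive means exactly half above 75%; inactive means most below 75%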;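 further: all wells also contain fluconazole at 8 µg/ml as a sub-toxic cotreatment; 0% = median of DMSO wells and 100% = median of geldanamycin control wells; wells of about 8 µL received 7.5 nL stock; the first replicate is given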
# UCH37 DUB inh: inhibitors of human UCH37 deubiquitinase, primary screen, biochemical, Ub-AMC cleavage, fluorescence; Ubiquitin carboxyl-terminal hydrolase isozyme L5 (Homo sapiens), Q9Y5K5; purified proteasome/UCH37; inhibition, % (no concentration beside the values); hit rate 0.33% among 330,000;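 active means mean of two replicates above 20%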;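 further: 0% = compound-free wells with enzyme and 100% = wells lacking proteasome; stock transfer was 100 nL into about 20 µL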
# Target sequence (Q9Y5K5 whole entry, looked up): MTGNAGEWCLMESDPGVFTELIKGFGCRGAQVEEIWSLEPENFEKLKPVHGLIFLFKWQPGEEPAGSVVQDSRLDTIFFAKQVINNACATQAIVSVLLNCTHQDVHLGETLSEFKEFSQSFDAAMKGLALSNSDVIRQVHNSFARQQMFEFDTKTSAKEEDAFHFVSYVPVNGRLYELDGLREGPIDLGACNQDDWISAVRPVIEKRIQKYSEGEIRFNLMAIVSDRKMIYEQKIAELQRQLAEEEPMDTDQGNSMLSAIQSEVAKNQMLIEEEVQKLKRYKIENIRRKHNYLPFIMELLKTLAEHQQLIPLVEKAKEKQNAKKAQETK
#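 assay system = human UCH37 enzyme supplied as purified proteasome complex | amount = proteasome at 0.15 nM in the dispensed enzyme solution | schedule = 30 min compound-proteasome preincubation then 25 min substrate reaction, room temperature | measured by = fluorescence, ex 355 nm, em 460 nm | benchmarks = no-proteasome wells (full inhibition) and compound-free wells (no inhibition)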
# Beta apoptosis: inhibitors of cytokine-induced beta cell apoptosis, primary screen, luminescence | INS-1E cytokine-induced death, ATP luminescence, 48 h; percent of positive-control rescue, neutral wells zero | protection from apoptosis, % (test concentration not listed) | hit rate 0.8% among 300,000;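 active means all replicates at 75% or more, or half of them and the mean; inconclusive means half reach 75% but not the mean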;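 further: 0% = cytokine-treated negative control wells and 100% = positive control rescue; higher means more ATP so stronger rescue from cytokine killing; wells of about 40 µL received 100 nL stock; the first replicate is given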
# * hit, by the source's call; ? = inconclusive; . = no result given.
SMILES,Beta2AR agonist,Bfl-1 A1 inh,T cruzi repl,RanGTP-Impb inh,LANA-H2B inh,Calb FLC,UCH37 DUB inh,Beta apoptosis
CC(C)[C@H](NS(=O)(=O)c1ccc2c(c1)OCCO2)C(=O)OCC(=O)Nc1ccccc1,-2,1.0,-13,1.0,2.9,-7,-0.6,-4
Cc1ccc(NC(=O)CN(C)C(=O)COC(=O)c2ccc(Cl)cc2O)cc1,0,0.5,.,.,-5.8,.,-3.3,-5
Cc1ccc(S(=O)(=O)N2CCN(c3ccc(C(F)(F)F)cc3[N+](=O)[O-])CC2)cc1,-7,0.9,3,0.0,0.6,-10,5.2,.
CCN(C(=O)COC(=O)CCCOc1ccccc1)c1c(N)n(Cc2ccccc2)c(=O)[nH]c1=O,8,1.7,.,.,-0.2,.,1.8,-4
Clc1ccc(-c2csc(-c3ccno3)n2)cc1,-12,-1.9,10,?,-2.6,-1,-0.5,-9
Cc1cccc(N/N=C(\C(N)=O)C2=NC(C)(C)Cc3ccccc32)c1,-2,0.4,31,3.5,-4.4,12,.,-7
CCCNC(=O)C(Cc1ccc(C(F)(F)P(=O)(OCC)OCC)cc1)NC(=O)c1ccc(C#N)cc1 (stereo unspecified),-2,0.1,.,.,6.9,.,2.9,-1
CCCn1c(N2CCN(S(=O)(=O)Cc3ccccc3)CC2)nc2ccccc21,-8,1.1,3,0.5,5.1,10,6.2,4
NC(=O)c1cc(N2C(=O)C3CC=CCC3C2=O)ccc1N1CCCCC1 (stereo unspecified),0,0.5,3,-1.5,0.9,?,-0.7,-2
CCn1c(SCC(=O)Nc2cc(Cl)ccc2OC)nnc1C1CC1,-8,0.1,-6,-1.7,1.6,15,5.4,-2
CCC(=O)N(CCC(Cc1ccccc1)c1ccco1)Cc1ccco1 (stereo unspecified),0,-0.5,6,5.3,-1.0,-2,6.9,.
CC1CCCC(C)N1CCCNC(=O)CN1C(=O)c2cccnc2Oc2ccc(Cl)cc21 (stereo unspecified),3,-1.0,-10,-2.4,1.7,5,0.5,-1

# Rewritten tab-delimited: part of the list above.
Structure	Beta2AR agonist	Bfl-1 A1 inh	T cruzi repl	RanGTP-Impb inh	LANA-H2B inh	Calb FLC	UCH37 DUB inh	Beta apoptosis
Cc1cccc(N/N=C(\C(N)=O)C2=NC(C)(C)Cc3ccccc32)c1	-2	0.4	31	3.5	-4.4	12	.	-7
CCCNC(=O)C(Cc1ccc(C(F)(F)P(=O)(OCC)OCC)cc1)NC(=O)c1ccc(C#N)cc1 (stereo unspecified)	-2	0.1	.	.	6.9	.	2.9	-1
CCCn1c(N2CCN(S(=O)(=O)Cc3ccccc3)CC2)nc2ccccc21	-8	1.1	3	0.5	5.1	10	6.2	4

# More results.
SMILES,Beta2AR agonist,Bfl-1 A1 inh,T cruzi repl,RanGTP-Impb inh,LANA-H2B inh,Calb FLC,UCH37 DUB inh,Beta apoptosis
Cc1ccc(NC(=O)CSC2=C(C#N)C(c3ccc4c(c3)OCO4)CC(=O)N2)cc1C (stereo unspecified),0,-0.6,13,0.7,1.8,-20,1.4,-1
Cc1cc(C(=O)Nc2ccc(C(=O)O)cc2)c(-c2ccccc2)o1,0,0.7,-12,1.8,-1.1,11,3.1,-6
O=C(N/N=C/c1cc([N+](=O)[O-])ccc1O)c1cccc2cc[nH]c12,5,-3.0,57*,-0.1,0.8,-4,.,100*
CCOc1ccc(NC(=O)CCn2ccnc2)cc1,-7,-0.6,1,7.1,-3.6,2,-1.9,.
CC(=O)c1c(C)[nH]c(C(=O)COC(=O)CN2C(=O)C3CCCCC3C2=O)c1C (stereo unspecified),-6,1.9,.,.,2.6,.,3.3,-8
Cc1noc(NS(=O)(=O)c2ccc(NC(=O)c3nn(-c4ccccc4)ccc3=O)cc2)c1C,9,2.0,-30,7.0,0.2,3,.,.
CN1CCN(CCOc2ccc(Cc3ccccc3)cc2)CC1,-3,-0.5,55*,1.5,-2.8,-13,2.0,1
O=C(Cc1ccc(Cl)c(Cl)c1)N1CCOCC1,-10,0.1,0,7.3,3.7,-4,0.8,-2
Cc1cccc(NC(=O)CSCC(=O)Nc2sccc2C#N)c1,7,0.2,-2,2.8,6.0,2,-0.4,.
CCC[N+](CC#Cc1ccccc1)(CCC)CC(=O)OCC,3,-0.1,-5,-1.5,0.6,6,5.8,1
O=[N+]([O-])c1cccc(C(=Nc2cccc(Cl)c2)NO)c1,-3,0.1,-3,-1.6,0.7,?,-1.2,-1
CC(C)CNS(=O)(=O)c1ccc(CCC(=O)NCc2ccco2)cc1,7,0.0,-6,3.3,-0.9,-1,1.8,-4
COc1ccc(C(=O)NCc2nnc(SCC(=O)Nc3nc4ccccc4s3)o2)cc1OC,2,1.0,-15,0.5,4.3,20,.,-3
Cn1c(-c2sccc2OCc2ccc(Cl)cc2Cl)n[nH]c1=S,-5,-0.3,24,2.7,2.8,19,-2.7,7
CCCCC1CC(CSC(=N)N)OC1=O (stereo unspecified),-5,-0.5,-19,-0.8,5.7,-7,5.2,.
CCN(c1ccccc1C)S(=O)(=O)c1nnc(NC(=O)c2ccco2)s1,4,1.5,-10,-0.5,4.5,-1,5.4,1
CCOc1ccc(NC(=S)N2CCC(N(C)CC3CCCO3)CC2)cc1 (stereo unspecified),-12,0.4,8,5.6,-2.0,-22,6.4,-2
O=C(Nc1ccc(Br)c(Cl)c1)C1CC1,-6,1.3,-6,-0.6,1.7,-9,0.8,-2
O=C(NCCc1ccccc1)c1cccc(N2C(=O)C3CC=CCC3C2=O)c1 (stereo unspecified),-4,0.7,-15,-2.9,-4.5,4,1.9,-7
Cc1ccc(Cn2c(SCC(=O)NCC3CCCO3)nc3c(sc4ccccc43)c2=O)cc1 (stereo unspecified),3,0.0,21,?,1.7,-2,-7.5,4
Cc1ccccc1Cn1nc(C)c(NC(=O)c2noc3c2CCCC3)c1C,-23,0.4,-5,-2.1,-4.7,30,0.5,-1
O=C(NCc1cccnc1)C(=O)NCC1OCCN1S(=O)(=O)c1ccc(Cl)cc1 (stereo unspecified),-9,1.3,-17,-1.0,5.1,2,2.8,-3
COc1ccc(C(CNC(=O)c2ccc(NS(=O)(=O)c3cccc([N+](=O)[O-])c3)cc2)N2CCOCC2)cc1 (stereo unspecified),2,0.0,8,3.1,1.7,6,2.9,3
Cc1ccc(CNC(=O)CSc2nccn(-c3ccc(C)c(F)c3)c2=O)cc1,2,0.3,-20,1.7,3.9,3,-120,.
CN(C)CCOc1cc(Cl)cc(Cl)c1,3,0.5,15,-1.3,-0.6,-3,3.8,-4
CCn1c(SCC(=O)Nc2ccc3c(c2)OCCO3)nc2c(c1=O)SC(C)C2 (stereo unspecified),-4,1.3,14,3.6,-2.8,10,.,.
CC(C)(C)OC(=O)C[C@@H]1C/C=C\C[C@H](CC(=O)NCCO)C(=O)N2CCC[C@H]2COC1=O,4,-0.1,.,.,-1.2,.,0.9,1
CCOC(=O)C1CCCN(Cc2cc(=O)oc3cc(C)c(C(C)C)cc23)C1 (stereo unspecified),4,0.0,34,-3.3,16,2,1.6,5
COc1ccc(NC(=O)CC2C(=O)N(c3ccc(F)cc3)C(=S)N2NC(=O)c2ccc(Cl)cc2)cc1 (stereo unspecified),7,-0.2,-72,2.8,3.3,10,3.7,3
CCCCn1c(N)c(N(CC)C(=O)C(c2ccccc2)c2ccccc2)c(=O)[nH]c1=O,-3,0.1,-10,1.5,0.5,7,1.0,1
COc1cccc(N2C(=O)C(CC(=O)Nc3ccccc3)N(C3CCCCC3)C2=O)c1 (stereo unspecified),-1,0.5,-3,0.9,0.4,25,1.7,6
O=C(O)COc1ccccc1-c1ccccc1,6,0.9,-2,3.2,-1.4,-9,2.7,-3
Cc1ccc(-c2nnc(SCC(=O)NNC(=O)COc3cccc4ccccc34)n2C)cc1,.,0.5,-20,1.4,0.0,-22,0.1,-3
O=C(CCCn1c(=S)[nH]c2ccccc2c1=O)NC1CCCC1,-12,0.3,-1,-0.3,2.3,8,4.8,-3
O=C(NNc1c(Cl)cccc1Cl)c1cccs1,9,0.2,3,-3.5,-2.7,-10,1.7,.
CC(C)c1ccc(-c2cc(C(=O)N3N=C(C(F)F)CC3(O)C(F)F)c3ccccc3n2)cc1 (stereo unspecified),3,0.1,69*,0.5,2.6,3,-6.9,38

# Copied from the list.
# Reading of CCn1c(SCC(=O)Nc2ccc3c(c2)OCCO3)nc2c(c1=O)SC(C)C2 (stereo unspecified) under T cruzi repl: 14
# Reading of O=C(CCCn1c(=S)[nH]c2ccccc2c1=O)NC1CCCC1 under Beta apoptosis: -3

# (cont.)
SMILES,Beta2AR agonist,Bfl-1 A1 inh,T cruzi repl,RanGTP-Impb inh,LANA-H2B inh,Calb FLC,UCH37 DUB inh,Beta apoptosis
COCCn1c(SCC(=O)NCc2ccc3c(c2)OCO3)nnc1C(C)C,1,0.9,-11,3.2,6.8,-3,-0.7,1
Cc1cccc(N2C(=O)C3C(c4ccccc4)OC4(C(=O)c5ccccc5C4=O)C3C2=O)c1 (stereo unspecified),-3,0.0,-6,?,2.1,-11,2.3,-3
COc1ccc(/C=C/C(=O)Nc2ccc(C)cc2)cc1S(=O)(=O)N1CCOCC1,4,-0.2,8,0.5,-2.4,1,4.0,6
COc1ccccc1CN(C(=O)Cc1cccs1)C(C(=O)NC1CCCC1)c1ccncc1 (stereo unspecified),17,0.9,53,-0.7,3.7,-9,1.3,2
Cc1ccc(C)c(N(CC(=O)NCc2ccco2)C(=O)CNS(=O)(=O)c2ccc(F)cc2)c1,6,0.3,9,8.5,-4.9,8,3.0,-3
CCOC(=O)N1CCN(C(=O)c2ccc3c(c2)N=C(CC)c2cc(C)ccc2S3)CC1,-2,0.0,6,4.7,-2.0,-9,0.7,5
Cn1cc(C(=O)NS(=O)(=O)Nc2ccc(Br)cn2)c2ccccc21,15,0.4,-2,0.1,3.0,-8,1.0,-6
CCN(CC)C(=O)c1cccc(NC(=O)c2cc(C3CC3)nc3c2cnn3C(C)C)c1,2,-1.4,.,.,2.6,.,-2.8,-14
COc1ccccc1/C=C\C=N\NC(=O)c1ccco1,-2,0.5,-2,-0.9,0.0,-4,.,2
COC(=O)C1[C@H]2SC(C)(C)C(C(=O)OC)N2C(=O)N1Cc1nc2ccccc2s1 (stereo partly specified),3,0.4,-4,-0.5,-3.7,-7,5.5,3
COc1cc(OC)c(C2=NOC(C(=O)Nc3ccc4c(c3)OCO4)C2)cc1Cl (stereo unspecified),0,0.5,22,2.4,-0.3,-13,4.0,1
